Sfp PPTase inh: qHTS Assay for Inhibitors of Bacillus subtilis Sfp phosphopantetheinyl transferase (PPTase); 4'-phosphopantetheinyl transferase ffp (Bacillus subtilis), Q9F4F7; Biochemical Sfp PPTase activity, qHTS; Potency, µM, for the others: max response, negative = inhibition, hits mostly inhibitors; 310,000 tested, 3.5% active; AID 1490, 2009; active means well fitted inhibition curve with a large enough effect; inconclusive means small, poorly fitted or top-dose-only effect, or another doubt; inactive means no such curve, though single readings can be large or run the other way;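 further: the enzyme is Sfp with the accession as filed and its product quenches rhodamine fluorescence; potency means the concentration at half of the fitted maximal effect; 0% = enzyme reaction without inhibitor and -100% = no enzyme wells; top concentration of the series not given in the record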
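With Hepes-Na pH 7.6 buffer containing 10 mM MgCl2, Sfp (15 nM) modified BHQ-2-YbbR (12.5 uM) using rhodamine-CoA (5 uM). Two reads 30 minutes apart at 525/598 nm yielded each well's rate.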
TRPV1 potentiator: HTS Assay for Compounds that Act as Potentiators of the Vanilloid Receptor 1; AID 540277, 2011; potentiation, % at 8.33 µM; 320,000 tested, 0.02% active; Transient receptor potential cation channel subfamily V member 1 (Homo sapiens), Q8NER1; TRPV1-expressing cells, Fluo-8 calcium influx, capsaicin EC20 potentiation; host cell line not named in the record; control for the full effect not named in the record; active means potentiation above 80%; inconclusive means 30% to 80%; inactive means below 30%; further: 0% is about no effect
Target sequence (Q8NER1 whole entry, looked up): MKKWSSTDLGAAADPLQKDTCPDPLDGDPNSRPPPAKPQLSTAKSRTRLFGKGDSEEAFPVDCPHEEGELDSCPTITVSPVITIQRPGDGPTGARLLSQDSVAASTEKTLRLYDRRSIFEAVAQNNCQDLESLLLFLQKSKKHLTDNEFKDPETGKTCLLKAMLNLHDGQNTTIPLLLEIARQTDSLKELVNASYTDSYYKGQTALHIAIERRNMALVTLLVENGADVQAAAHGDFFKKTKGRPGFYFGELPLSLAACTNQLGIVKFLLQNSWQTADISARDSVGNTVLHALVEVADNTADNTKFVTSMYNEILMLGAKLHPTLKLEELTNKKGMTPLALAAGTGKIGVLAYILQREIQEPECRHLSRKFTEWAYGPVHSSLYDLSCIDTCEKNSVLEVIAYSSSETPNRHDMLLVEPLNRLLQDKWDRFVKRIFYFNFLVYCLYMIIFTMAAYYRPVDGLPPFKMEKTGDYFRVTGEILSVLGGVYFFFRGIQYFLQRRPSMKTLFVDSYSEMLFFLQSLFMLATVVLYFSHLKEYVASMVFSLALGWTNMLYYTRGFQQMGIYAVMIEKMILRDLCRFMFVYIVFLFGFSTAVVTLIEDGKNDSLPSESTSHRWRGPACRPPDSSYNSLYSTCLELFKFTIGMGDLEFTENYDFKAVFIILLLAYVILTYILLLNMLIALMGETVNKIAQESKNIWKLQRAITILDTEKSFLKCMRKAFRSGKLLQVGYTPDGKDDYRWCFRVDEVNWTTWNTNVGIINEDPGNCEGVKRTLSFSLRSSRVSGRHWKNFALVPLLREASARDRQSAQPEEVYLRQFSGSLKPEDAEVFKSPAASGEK
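TRPV1-expressing cells were cultured overnight at 35.5C and loaded with Fluo-8 calcium dye for 40 to 90 min at room temperature. After a 10 s baseline, compound was added and calcium influx was read kinetically for 3 min (ex 480/em 520 nm).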
gsp ag: qHTS for Agonist of gsp, the Etiologic Mutation Responsible for Fibrous Dysplasia/McCune-Albright Syndrome: qHTS; gsp mutant cells, cAMP HTRF, 30 min; control for the full effect not named in the record; Potency, µM (titrated, usually from 76.9 µM), for the others: at the highest dose activation (cAMP increase), usual class: activators; 340,000 tested, 0.13% active; AID 624287, 2012; active = well fitted activation curve with a large enough effect; inconclusive = small, poorly fitted or top-dose-only effect, or another doubt; inactive = no such curve, though single readings can be large or run the other way; cell line not stated here;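 further: phosphodiesterase inhibitor Ro 20-1724 added with compounds to block cAMP breakdown; potency means the concentration at half of the fitted maximal effect; nearly all actives have a fitted effect of over 60% in size; about a fifth of the inactives were tested at one dose only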
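Cells stably selected in G418 were plated at 2000/well, grown 16-24 hr, then given compounds in DMSO with the PDE inhibitor […] (300 uM solution added) for 30 min at 37C; cAMP was read by HTRF.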
D2 PAM: Beta-Arrestin HTS for Positive Allosteric Modulators of the Human D2 Dopamine Receptor: Potentiators; AID 624464, 2012; D(2) dopamine receptor (Homo sapiens), P14416; potentiation, % (no concentration beside the values); 360,000 tested, 0.23% active; DiscoveRx D2 beta-arrestin cells, luminescence, 90 min; 100% = 57 uM dopamine signal; active = potentiation of 50% or more; inconclusive = 30% to 50%; inactive = 30% or less;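 further: compound concentration not given in the record; tested on top of an EC20 dose of dopamine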
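PathHunter D2 cells, attached overnight at 37 deg C, received compound in DMSO plus dopamine at EC20 (50 nM final) for 90 min at 37 deg C. Beta-arrestin recruitment was read as luminescence after 1 h with detection reagent at ambient temperature.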
gsp antag: qHTS for Antagonists of gsp, the Etiologic Mutation Responsible for Fibrous Dysplasia/McCune-Albright Syndrome: qHTS; 340,000 tested, 0.4% active; Potency, µM (top dose mostly 76.9 µM), without a hit: top-dose activity change, negative = inhibition, usual class: inhibitors; gsp-mutant cells, cAMP HTRF, 30 min; control for the full effect not named in the record; active = falling curve of any shape with a large fitted effect; inconclusive = falling curve, mostly with a smaller effect; inactive = flat or rising curve; cell line not stated here;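 further: intracellular cAMP measured with PDE inhibitor Ro 20-1724 present during compound exposure; potency means the concentration at half of the fitted maximal effect; on the % scale 0 is the no-effect control and ±100 the full control effect; nearly all actives have a fitted effect of over 65% in size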
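HTRF cAMP measurement after 30 min RT detection following 30 min, 37C compound treatment alongside […] (added as 300 uM solution) in G418-selected cells seeded at 2000/well and grown 16–24 h.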
Menin-MLL FL inh: qHTS Assay for Inhibitors Targeting the Menin-MLL Interaction in MLL Related Leukemias: Competition With Fluorescein Labeled MLL-derived Peptide; FP activity change, % at 61.4 µM; 290,000 tested, under 10 active; AID 1766, 2009; Fluorescence polarization, fluorescein-MLL peptide displacement from menin; inconclusive = falling polarisation curve, or a change in total fluorescence; inactive = total fluorescence flat and polarisation flat or rising; no compound was filed as active; the % refers to the polarisation; negative = inhibition;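 further: % of control where 0% means no effect; inhibitors lower the polarisation; unlabelled MLL peptide was the positive control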
ClpP mod: qHTS Assay for Activators of ClpP | Potency, µM (series often up to 57.5 µM), inactives show at the top dose activity change, negative = active | ATP-dependent Clp protease proteolytic subunit (Bacillus subtilis (strain 168)), P80244 | AID 651965, 2013 | purified B. subtilis ClpP, FRET peptide cleavage, 20 min | 340,000 tested, 1.9% active; active = well fitted falling curve with a large enough effect; inconclusive = small, poorly fitted or top-dose-only effect; inactive = no such curve, though single readings can be large or run the other way; further: potency means the concentration at half of the fitted maximal effect; the source files actives as falling curves though it sought activators and does not explain the sign; nearly all actives have a fitted effect of over 65% in size; many hits overshoot -100%
Target sequence (P80244 whole entry, looked up): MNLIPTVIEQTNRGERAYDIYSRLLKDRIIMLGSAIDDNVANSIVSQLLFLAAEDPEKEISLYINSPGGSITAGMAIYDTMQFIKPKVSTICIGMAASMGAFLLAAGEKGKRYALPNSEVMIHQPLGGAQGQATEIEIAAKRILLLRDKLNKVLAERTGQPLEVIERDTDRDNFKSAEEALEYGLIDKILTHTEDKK
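ClpP 10 microg/mL final, pH 8 Tris/KCl buffer with BSA, glycerol, Tween-20; compound pinned in; FRET-FV substrate; RT 20 min; Ex320/Em430; ΔFRET vs ADEP 5.8 microM, DMSO, no enzyme.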
Numbers without * were called inactive; [ ] = dose if it differs, or a comment.

How did COc1c(C)cccc1C(=O)NC(=S)Nc1ccccc1N1CCCC1 do in these assays?
Sfp PPTase inh: 9%; TRPV1 potentiator: -1; gsp ag: 10%; D2 PAM: 3; gsp antag: 5%; ClpP mod: -0.8%

Results for CN(CCC#N)S(=O)(=O)c1ccc2[nH]cc(C(=O)NCCc3ccccc3)c(=O)c2c1 ?
Sfp PPTase inh: 8%; TRPV1 potentiator: -10; gsp ag: 9%[15.4 µM]; D2 PAM: 13; gsp antag: -4%; Menin-MLL FL inh: 4.5; ClpP mod: 28µM*

Results for O=C1C2C3CCCC3=C3CCCC3C2C(=O)N1c1cccc(Cl)c1 (stereo not given) ?
Sfp PPTase inh: -18%; TRPV1 potentiator: 12; gsp ag: -20%; D2 PAM: 4; gsp antag: -15%; Menin-MLL FL inh: 0.0; ClpP mod: -1.0%

What do the screens show for `COc1cc(C(=O)Nc2ccc(C#N)cc2)c([N+](=O)[O-])cc1OC`?
Sfp PPTase inh: 21%; TRPV1 potentiator: 3; gsp ag: 3%[15.4 µM]; D2 PAM: -11; gsp antag: -10%; Menin-MLL FL inh: 2.4

What do the screens show for `O=[N+]([O-])c1cccc2[nH]ncc12`?
gsp ag: inconclusive; D2 PAM: -10; gsp antag: 8%; ClpP mod: -1.9%

What do the screens show for `CS(=O)(=O)N(CC(=O)NCCC1=CCCCC1)c1cccc([N+](=O)[O-])c1`?
Sfp PPTase inh: 13%; TRPV1 potentiator: -6; gsp ag: -6%; D2 PAM: -5; gsp antag: 8%; Menin-MLL FL inh: 1.1; ClpP mod: -3.0%

How did CC(C)(C)OC(=O)N1CCC(c2cc(=O)n3[nH]cc(C(=O)Nc4ccc(F)c(Cl)c4)c3n2)CC1 do in these assays?
Sfp PPTase inh: 8%; TRPV1 potentiator: -6; gsp ag: 1%; D2 PAM: -7; gsp antag: 2%; Menin-MLL FL inh: -3.5; ClpP mod: inconclusive

Results for O=C(Nc1cccc(Cl)c1)Nc1ccc2nccnc2c1 ?
Sfp PPTase inh: -19%; TRPV1 potentiator: -11; gsp ag: 11%; D2 PAM: -4; gsp antag: inconclusive; Menin-MLL FL inh: -1.0; ClpP mod: -8.0%

What do the screens show for `Fc1ccccc1N1CCN(C(c2cccs2)c2nnnn2CCc2ccccc2)CC1` (stereo not given)?
Sfp PPTase inh: 6%; TRPV1 potentiator: 3; gsp ag: -12%; D2 PAM: 2; gsp antag: -8%; Menin-MLL FL inh: 0.5; ClpP mod: -2.9%

How did CCNC(=O)C(=O)NCC(c1ccc2c(c1)OCO2)N1CCOCC1 (stereo not given) do in these assays?
Sfp PPTase inh: 13%; TRPV1 potentiator: -3; gsp ag: inconclusive; D2 PAM: -2; gsp antag: 13%; Menin-MLL FL inh: 0.8; ClpP mod: -2.5%

What do the screens show for `COc1cc(/C=N/Nc2ccccn2)ccc1OCC(C)C`?
Sfp PPTase inh: -10%; TRPV1 potentiator: -23; gsp ag: -20%[15.4 µM]; D2 PAM: 2; gsp antag: 11%; Menin-MLL FL inh: -0.5

How did O=C(CSc1nc2ccccc2[nH]1)N1CCN(c2ccc(F)cc2)CC1 do in these assays?
Sfp PPTase inh: -3%; TRPV1 potentiator: -4; gsp ag: -11%; D2 PAM: -32; gsp antag: -12%; Menin-MLL FL inh: 1.8; ClpP mod: 3.6%

Results for CCCCN1C(=O)C(CC(=O)NCc2cccs2)CC(C(=O)N(CC)CC)=C1C (stereo not given) ?
gsp ag: 7%; D2 PAM: 2; ClpP mod: 0.2%

Results for CNC(=S)N(CCc1c(C)[nH]c2ccc(OC)cc12)Cc1ccco1 ?
Sfp PPTase inh: 12%; TRPV1 potentiator: 0; gsp ag: -34%[inhibitor]; D2 PAM: -11; gsp antag: -15%; Menin-MLL FL inh: 0.5; ClpP mod: -1.0%

How did CCOCCCNC(=O)c1cc(=O)n(Cc2cccc(C)c2)c2ccccc12 do in these assays?
Sfp PPTase inh: 7%; TRPV1 potentiator: -16; gsp ag: -3%[15.4 µM]; D2 PAM: 1; gsp antag: 9%; Menin-MLL FL inh: -2.2

How did CC(C)CCC(C)NC(=O)c1ccc2nccnc2c1 (stereo not given) do in these assays?
Sfp PPTase inh: 9%; TRPV1 potentiator: 30; gsp ag: -27%; D2 PAM: -4; gsp antag: 4%; Menin-MLL FL inh: 6.2

How did CCOC(=O)C1CCCN(C(=O)C2CCN(S(=O)(=O)c3ccc(Cl)c(C(F)(F)F)c3)CC2)C1 (stereo not given) do in these assays?
gsp ag: 10%; D2 PAM: -7; gsp antag: 3%; ClpP mod: 1.1%

What do the screens show for `COc1cccc(N2C(=O)N(c3ccccc3)C3CS(=O)(=O)CC32)c1` (stereo not given)?
Sfp PPTase inh: 8%; TRPV1 potentiator: 7; gsp ag: -1%; D2 PAM: -11; gsp antag: -2%; Menin-MLL FL inh: 1.0; ClpP mod: 1.0%

What do the screens show for `COCCCn1c(-c2cccs2)nc2nc3ccccc3nc21`?
Sfp PPTase inh: 9%; TRPV1 potentiator: 22; gsp ag: -7%; D2 PAM: -15; gsp antag: -11%; Menin-MLL FL inh: 1.3; ClpP mod: 3.6%

Results for CC1C(=O)N2CCCc3cc(S(=O)(=O)Nc4ccccc4C(N)=O)cc1c32 (stereo not given) ?
TRPV1 potentiator: -16; gsp ag: 5%; D2 PAM: 6; gsp antag: 6%; ClpP mod: 32µM*

How did C[C@]12C(=O)N(c3ccc(C(F)(F)F)cc3)C(=O)N1[C@@H]1c3ccccc3OC[C@@H]1[C@H]2c1ccccc1 do in these assays?
Sfp PPTase inh: 9%; TRPV1 potentiator: 8; gsp ag: -3%; D2 PAM: -11; gsp antag: 1%; Menin-MLL FL inh: 1.9; ClpP mod: -3.4%

What do the screens show for `COc1ccc(C(=O)NCCS(=O)(=O)NCC2CCCO2)cc1` (stereo not given)?
TRPV1 potentiator: 3; gsp ag: 5%[15.4 µM]; D2 PAM: 4; gsp antag: 6%

How did Cc1cccc(NC(=O)c2ccc(C3SCC(=O)N3CCc3ccccc3)cc2)c1 (stereo not given) do in these assays?
Sfp PPTase inh: 13%; TRPV1 potentiator: 10; gsp ag: 7%; D2 PAM: -13; gsp antag: inconclusive; Menin-MLL FL inh: 0.6; ClpP mod: -22%

What do the screens show for `Cc1cc(COc2ccccc2OCCN2CCN(C)CC2)no1`?
Sfp PPTase inh: 10%; TRPV1 potentiator: 1; gsp ag: -30%[inhibitor]; D2 PAM: -27; gsp antag: -1%; Menin-MLL FL inh: 2.5; ClpP mod: -0.8%

Results for CCOC(=O)Cn1nnnc1C(CC)N(Cc1cc2c(C)cc(C)cc2[nH]c1=O)C1CCCC1 (stereo not given) ?
Sfp PPTase inh: 10%; TRPV1 potentiator: 8; Menin-MLL FL inh: -1.6

How did NS(=O)(=O)c1ccc(NC(=O)C2Cc3ccccc3CN2C(=O)c2ccco2)cc1 (stereo not given) do in these assays?
Sfp PPTase inh: -22%; TRPV1 potentiator: 4; gsp ag: -15%[15.4 µM]; D2 PAM: -2; gsp antag: 8%; Menin-MLL FL inh: 1.0

Results for COC(=O)c1cc(OC)c(OC)cc1NC(=O)c1cc(-c2ccccc2)nc2ccccc12 ?
Sfp PPTase inh: 12%; TRPV1 potentiator: 10; gsp ag: -15%; D2 PAM: -1; gsp antag: -11%; Menin-MLL FL inh: 4.4; ClpP mod: -0.5%

What do the screens show for `CCOc1ccc(/C=N/NC(=O)CC(=O)NCc2ccccc2)cc1`?
Sfp PPTase inh: 10%; TRPV1 potentiator: 6; gsp ag: inconclusive; D2 PAM: -5; gsp antag: -2%; Menin-MLL FL inh: -2.7

Results for COc1ccc(CNC(=O)C2Cc3ccccc3CN2C(=O)c2ccco2)cc1 (stereo not given) ?
Sfp PPTase inh: 13%; TRPV1 potentiator: 4; gsp ag: 0%; D2 PAM: -2; gsp antag: 6%; Menin-MLL FL inh: -0.9

What do the screens show for `CCOC(=O)c1sc(NC(=O)CCC(=O)O)nc1C`?
Sfp PPTase inh: 14%; TRPV1 potentiator: 15; gsp ag: inconclusive; D2 PAM: 0; gsp antag: 4%; Menin-MLL FL inh: -1.3

How did O=c1ncn(-c2ccccc2F)c2ncccc12 do in these assays?
Sfp PPTase inh: 8%; TRPV1 potentiator: -13; gsp ag: 1%; D2 PAM: 4; gsp antag: 16%; Menin-MLL FL inh: -1.3; ClpP mod: -20%

Results for Cc1cnc(C(=O)OCC(=O)Nc2ccc(Oc3ccccc3)cc2)cn1 ?
Sfp PPTase inh: -6%; TRPV1 potentiator: -11; gsp ag: 3%; D2 PAM: 10; gsp antag: 8%; Menin-MLL FL inh: 0.5; ClpP mod: -1.7%

What do the screens show for `CN(C)S(=O)(=O)N1CCN(c2ccc(Cl)cc2)CC1`?
Sfp PPTase inh: 8%; TRPV1 potentiator: -12; gsp ag: 0%; D2 PAM: -8; gsp antag: -5%; Menin-MLL FL inh: 4.7; ClpP mod: -3.8%

What do the screens show for `O=C(NCCCN1CCOCC1)c1cc2c(s1)-c1ccccc1OC2`?
Sfp PPTase inh: 5%; TRPV1 potentiator: 3; gsp ag: -23%; D2 PAM: -31; gsp antag: 11%; Menin-MLL FL inh: 0.1; ClpP mod: 3.3%

Results for Cc1cc(NC(=O)CN2C(=O)c3ccccc3S2(=O)=O)no1 ?
Sfp PPTase inh: 10%; TRPV1 potentiator: -1; gsp ag: -31%[inhibitor]; D2 PAM: -11; gsp antag: 3%; Menin-MLL FL inh: -1.1; ClpP mod: 0.2%
